SARS PLpro yeast – inhibitors of SARS-CoV papain-like protease in yeast. S. cerevisiae expressing SARS-CoV PLpro, growth rescue; control for the full effect not named in the record. Potency, µM (highest dose often 32.9 µM), without a hit: at the top dose activity, positive = growth rescue. hit rate 0.19% among 330,000. AID 485353; active means well fitted rising curve with a large enough effect; inconclusive means small, poorly fitted or top-dose-only effect; inactive means no such curve, though single readings can be large or run the other way; note: 0% is about no effect; nearly all actives have a fitted effect of over 55% in size; growth read by luminescence after 48 h
Cruzain Triton – cruzain (T. cruzi) inhibition with detergent. purified cruzain, Z-FR-AMC fluorescence, 0.01% Triton. Potency, µM, inactives show max response, negative = inhibition, actives largely listed as inhibitors. hit rate 0.43% among 200,000. AID 1478;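 note: plate controls were neutral wells for no effect and buffer without enzyme for full effect; nearly all actives have a fitted effect of over 40% in size; top concentration of the series not given in the record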
Target sequence (P25779 123-467 limits assumed): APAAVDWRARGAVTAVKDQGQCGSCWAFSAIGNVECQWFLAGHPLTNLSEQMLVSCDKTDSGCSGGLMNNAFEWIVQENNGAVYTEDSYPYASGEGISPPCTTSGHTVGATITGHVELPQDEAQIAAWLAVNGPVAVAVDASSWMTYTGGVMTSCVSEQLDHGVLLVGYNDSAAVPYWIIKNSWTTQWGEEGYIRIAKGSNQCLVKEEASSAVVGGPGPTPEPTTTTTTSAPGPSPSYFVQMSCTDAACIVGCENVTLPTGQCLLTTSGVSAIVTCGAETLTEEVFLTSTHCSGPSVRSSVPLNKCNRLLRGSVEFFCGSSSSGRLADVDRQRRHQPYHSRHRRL
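Detergent-containing run (0.01% Triton X-100) in acetate buffer pH 5.5 with 5 mM DTT: enzyme at 1.5 nM final, 15 min compound preincubation at room temperature, then 2 uM Z-FR-AMC substrate. Activity taken as 60 s fluorescence increase at 360/450 nm.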
Cruzain inh noDet – cruzain (T. cruzi) inhibition without detergent | AID 1476 | P25779 | Potency, µM, for the others: max response, negative = inhibition, most hits filed as inhibitors | purified cruzain, Z-FR-AMC fluorescence, no detergent | hit rate 2.3% among 200,000;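 note: plate controls were enzyme without inhibitor for no effect and buffer without enzyme for full effect; nearly all actives have a fitted effect of over 40% in size; top concentration of the series not given in the record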
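Detergent-free condition (0.00005% Triton X-100) in acetate buffer pH 5.5 with DTT. 1.5 nM enzyme and compound were pre-mixed 15 min, then 2 uM Z-FR-AMC substrate added; reaction progress from fluorescence change between first and third reads (60 s).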
MARV entry inh – blocks Marburg virus binding to or entry into cells. Marburg virus pseudotyped entry inhibition, cell reporter; control for the full effect not named in the record; about a third of the inactives were read at about 46 µM. Potency, µM (series often up to 37.8 µM), for inactives: at the highest dose activity change, negative = inhibition, hits mostly inhibitors. hit rate 1.8% among 300,000; active = well fitted inhibition curve with a large enough effect; inconclusive = small, poorly fitted or top-dose-only effect, or effect the other way; inactive = flat fitted curve, though single readings scatter; tested in HEK293 cells; about a fifth of its hits are not listed in these tables; note: % is set by controls: 0 for no effect and ±100 for the full control effect; luciferase read-out
RE007 growth inh – less growth of the S. pombe RE007 Vpr strain; hit rate 0.21% among 360,000; S. pombe RE007 Vpr strain, BacTiter-Glo ATP luminescence, 24 h; control for the full effect not named in the record; Potency, µM (doses to about 92.2 µM), for the others: at the highest dose activity change, negative = less growth; active = well fitted falling curve with a large enough effect; inconclusive = small, poorly fitted or top-dose-only effect; inactive = no such curve, though single readings can be large or run the other way;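 note: % is set by controls: 0 for no effect and ±100 for the full control effect; nearly all actives have a fitted effect of over 50% in size; the assay follows cell death caused by Vpr and the record does not say whether a fall means rescue or toxicity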
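Fission yeast strain RE007, carrying one chromosomally integrated HIV-1 vpr copy, was seeded at OD 0.01 in PMG+AL medium with 23 nL pinned compound. After 24 h at 30 °C and 99% humidity, viability was read by BacTiter-Glo luminescence.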
NS1 inh – inhibitors of influenza NS1 protein function. S. cerevisiae slowed by influenza A NS1, growth recovery by OD600. Potency, µM (highest dose often 46.1 µM), for inactives: at the highest dose activity, positive = more growth. hit rate 0.4% among 270,000. AID 2326; active means well fitted rising curve with a large enough effect; inconclusive means small, poorly fitted or top-dose-only effect; inactive means no such curve, though single readings can be large or run the other way; note: nearly all actives have a fitted effect of over 50% in size
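S. cerevisiae expressing influenza A NS1, grown in glucose, washed, then diluted 1:100 into pH 6.0 -URA galactose medium with 23 nl compound. Growth recovery read as OD600; NS1-free strain serves as control.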
StopGo reporter – FMDV 2A StopGo reporter, luciferase signal; hit rate 1.2% among 410,000; Potency, µM (series often up to 57.9 µM), for inactives: top-dose signal change, negative = less light; human cells with a luciferase reporter of 2A StopGo recoding; control for the full effect not named in the record; active = well fitted falling curve with a large enough effect; inconclusive = small, poorly fitted or top-dose-only effect; inactive = no such curve, though single readings can be large or run the other way; tested in HEK293T cells; note: % is set by controls: 0 for no effect and ±100 for the full control effect; nearly all actives have a fitted effect of over 45% in size; luciferase light after 4 h
LASV entry inh – Lassa virus entry inhibition | Lassa virus pseudotype entry inhibition, cell reporter; control for the full effect not named in the record | Potency, µM (titrated, usually from 37.9 µM), for the others: at the highest dose activity change, negative = inhibition, most hits filed as inhibitors | hit rate 1.2% among 300,000; active means well fitted inhibition curve with a large enough effect; inconclusive means small, poorly fitted or top-dose-only effect, or effect the other way; inactive means flat fitted curve, though single readings scatter; tested in HEK293 cells; note: % is set by controls: 0 for no effect and ±100 for the full control effect; nearly all actives have a fitted effect of over 50% in size; luciferase read-out
* hit, by the source's call; ? = inconclusive; nt = no result given; & = joins results of further samples; [ ] = dose if it differs, or a comment. Unless noted, calls come from the whole dose curve; as a rule, active = well fitted curve in the direction sought with a large enough effect; inconclusive = small, poorly fitted or top-dose-only effect, or another doubt; inactive = no such curve, though single readings can be large; an effect the other way counts as inactive or inconclusive. Potency is the fitted concentration of half-maximal effect.

Below each compound: SARS PLpro yeast, Cruzain Triton, Cruzain inh noDet, MARV entry inh, RE007 growth inh, NS1 inh, StopGo reporter, LASV entry inh
- Cc1ccc(CSc2ccc(-c3ccc4c(c3)OCO4)nn2)cc1
  14%, -6.2%, -28%, 6%, -12%, -5%, 27%, ?
- Cc1cc2ncc(C(=O)N=CN(C)C)cn2n1
  0%, nt, nt, ?, -1%, nt, -4%, -1%[46.1 µM]
- O=C(NC1CCCc2ccccc21)c1cc(Cl)ccn1 (stereo unspecified)
  -16%, nt, nt, -14%[46.1 µM], -21%, -22%, 15%, 5%
- Nc1ccc(-c2nnc(-c3ccc(-c4ccccc4)cc3)o2)cc1
  -5%, -4.2%, -17%, ?, 15%, -33%, 32%[activator], 2%
- COc1ccc(-n2nc3c(c2NC(=O)C2CC2)CS(=O)(=O)C3)cc1
  -2%, nt, nt, ?, -9%, 1%, -18%, 6%
- COc1cc(/C=N/NC(=O)c2cc(C)oc2C)ccc1O
  7%, nt, nt, 9%[46.1 µM], 2%, nt, 20%, -8%
- CCOc1ccc(-n2c(C)c(C(C)=O)c3cc(OCC(N)=O)ccc32)cc1
  1%, nt, nt, 14%, 3%, 0%, -3%, 0%
- O=C(CSCc1ccc(Cl)cc1)NCC1CCCO1 (stereo unspecified)
  -3%, 3.1%, 1%, -8%, 5%, -1%, -4%, -1%
- Cc1ccc2c(c1)N(CCCC(=O)NCc1cccc(F)c1)C(=O)CO2
  nt, 3.3%, 2%, ?, nt, nt, -15%, ?
- Cc1cccc(C(=O)Nc2cc(Cl)ccc2-n2cncn2)c1[N+](=O)[O-]
  1%, nt, nt, 6%[46.1 µM], -8%, nt, 1%, 21%

(next part)
Below each compound: SARS PLpro yeast, Cruzain Triton, Cruzain inh noDet, MARV entry inh, RE007 growth inh, NS1 inh, StopGo reporter, LASV entry inh
- Cn1c(=O)cc(OCCCC(=O)NC2CCCC2)c2ccccc21
  -3%, 1.2%, 17%, -11%, 11%, -21%, 86%, 8%
- COc1ccc(CCNC(=O)c2ccc(Cl)cc2Cl)cc1
  -11%, 6.1%, -6%, ?, -8%, -27%, -5%, -8%
- COC(=O)c1ccccc1NC(=O)Cn1c(CCC(=O)O)ccc1-c1cccs1
  -7%, -7.9%&-3.5%, 14%&12%, -6%, 7%, 6%, 7%&8%, 1%[46.1 µM]
- CN(C)S(=O)(=O)c1cccc(NC(=S)N/N=C/c2cc(Br)ccc2O)c1
  20%, nt, nt, 10µM*, 12%, -1%, ?, ?
- O=S(=O)(Nc1ccccc1Cl)c1ccc2[nH]c(=S)oc2c1
  17%, nt, nt, -13%, 28%, 24%, ?, 5%
- CC(C)(C)c1ccc(C(=O)NNc2ncccc2-n2cccc2)cc1
  -4%, nt, nt, nt, 1%, 4%, -10%, nt
- COc1ccc(OC)c(C(=O)COC(=O)C2CC3CCCC(C2)C3=O)c1 (stereo unspecified)
  1%, -6.9%, -5%, 18%, -2%, -7%, -10%, -19%
- Cc1cc(=O)oc2cc(OCC(=O)c3ccccc3)ccc12
  -1%, nt, nt, ?, 17%, -4%, 32%[activator], ?
- COC(=O)CSc1nc2sc3c(c2c(=O)[nH]1)CCC3
  4%, nt, nt, nt, 21%, 1%, -5%, nt
- CCCC(C)NC(=O)C1CCN(C(=O)C2CC(=O)N(c3ccc(C)cc3)C2)CC1 (stereo unspecified)
  -1%, nt, nt, -5%[46.1 µM], -5%, 2%, 12%, 18%[46.1 µM]

Continuation:
Below each compound: SARS PLpro yeast, Cruzain Triton, Cruzain inh noDet, MARV entry inh, RE007 growth inh, NS1 inh, StopGo reporter, LASV entry inh
- Cc1cc(NC(=O)c2ccc3c(c2)OCO3)ccc1NC(=O)c1ccco1
  -8%, -3.4%, -5%, 8%, -16%, 1%, 32%[activator], -4%
- CC1CCN(c2ccc(NC(=S)NC(=O)c3ccco3)cc2)CC1
  2%, -5.9%, 6%, -2%, -4%, -14%, -1%, 0%
- CS(=O)(=O)N(CC(=O)N1CCCCCC1)c1ccc(Cl)cc1
  -2%, nt, nt, nt, 12%, 11%, -18%, nt
- O=C(NCc1ccccc1Br)c1ccncc1
  1%, nt, nt, nt, -5%, 2%, -6%, nt
- COc1ccc(-n2cnc3ccccc32)cc1
  1%, 0.4%, -2%, ?, -1%, -5%, nt, ?
- C=CCNC(=O)COc1ccc(Br)cc1Cl
  1%, -4.5%, -1%, 7%, -27%, -22%, 18%, ?
- O=C(NCc1cccnc1)c1ccc(CS(=O)(=O)c2ccc(Br)cc2)o1
  -4%, 0.8%, -9%, nt, 2%, -4%, -6%, nt
- O=c1[nH]c(CCl)nc2cc(-c3ccc(F)cc3)sc12
  -2%, nt, nt, ?, -3%, -55%, -60%, ?
- Cc1ccccc1C1=NC(c2ccc(F)cc2F)ON1 (stereo unspecified)
  -16%, -2.0%, 9%, 24%, -32%, 1%, 59%[activator], 25%
- COc1cc2nc(CCc3ccccc3)oc(=O)c2cc1OC
  -1%, nt, nt, 10%, 13%, nt, -18%, -3%

Copied from the entries so far (9 entries):
Below each compound: SARS PLpro yeast, Cruzain Triton, Cruzain inh noDet, MARV entry inh, RE007 growth inh, NS1 inh, StopGo reporter, LASV entry inh
- CC1CCN(c2ccc(NC(=S)NC(=O)c3ccco3)cc2)CC1
  2%, -5.9%, 6%, -2%, -4%, -14%, -1%, 0%
- CS(=O)(=O)N(CC(=O)N1CCCCCC1)c1ccc(Cl)cc1
  -2%, nt, nt, nt, 12%, 11%, -18%, nt
- O=C(NCc1ccccc1Br)c1ccncc1
  1%, nt, nt, nt, -5%, 2%, -6%, nt
- COc1ccc(-n2cnc3ccccc32)cc1
  1%, 0.4%, -2%, ?, -1%, -5%, nt, ?
- C=CCNC(=O)COc1ccc(Br)cc1Cl
  1%, -4.5%, -1%, 7%, -27%, -22%, 18%, ?
- O=C(NCc1cccnc1)c1ccc(CS(=O)(=O)c2ccc(Br)cc2)o1
  -4%, 0.8%, -9%, nt, 2%, -4%, -6%, nt
- O=c1[nH]c(CCl)nc2cc(-c3ccc(F)cc3)sc12
  -2%, nt, nt, ?, -3%, -55%, -60%, ?
- Cc1ccccc1C1=NC(c2ccc(F)cc2F)ON1 (stereo unspecified)
  -16%, -2.0%, 9%, 24%, -32%, 1%, 59%[activator], 25%
- COc1cc2nc(CCc3ccccc3)oc(=O)c2cc1OC
  -1%, nt, nt, 10%, 13%, nt, -18%, -3%

The list continues.
Below each compound: SARS PLpro yeast, Cruzain Triton, Cruzain inh noDet, MARV entry inh, RE007 growth inh, NS1 inh, StopGo reporter, LASV entry inh
- CN(Cc1cccc(-n2cccn2)c1)C(=O)CCc1nnc(C2CCCCC2)o1
  0%, nt, nt, ?, 2%, -3%, 42%[activator], 15%[46.1 µM]
- C=CCn1c(SCC(=O)Nc2ccc(F)cc2F)nc2c([nH]c3ccccc32)c1=O
  2%, nt, nt, -16%, -12%, -12%, -5%, 11%
- COc1ccc(CNC(=O)CC(NC(N)=O)c2ccccc2Cl)cc1OC (stereo unspecified)
  -5%, nt, nt, 6%, 10%, -1%, 0%, 20%
- COC(=O)C(NC(=O)c1ccccc1Cl)(Nc1ncc(S(=O)(=O)c2ccc([N+](=O)[O-])cc2)s1)C(F)(F)F (stereo unspecified)
  -16%, -2.2%, -8%, ?, 5%, -4%, ?, ?
- CCNc1nc(Oc2ccc(Cl)cc2Cl)cc(C(F)(F)F)n1
  -23%, -9.2%, -10%, 0%, -12%[3.69 µM], -4%, ?, 22%
- COC(=O)Nc1ccc(S(=O)(=O)N2CCC(C(=O)N3CCCC(C)C3)CC2)cc1 (stereo unspecified)
  0%, nt, nt, -2%[46.1 µM], -13%, -4%, 6%, 0%[46.1 µM]
- CC(=O)Nc1ccc(NC(=O)c2ccc(CN3CCc4ccccc4C3)cc2)cc1
  6%, nt, nt, ?, 2%, -11%, -17%, 11%
- O=C(c1cc2ccccc2oc1=O)N(Cc1ccco1)CC1CCCO1 (stereo unspecified)
  -3%, -1.5%, -3%, -1%, 2%, -6%, 16%, ?
- CCOc1ccc(NC(=O)CSc2cn(CC(=O)N3CCOCC3)c3ccccc23)cc1
  nt, -1.6%, 27%, nt, nt, nt, 15%, 8%[46.1 µM]
- CCn1c(SCC(=O)Nc2ccc(Br)cc2)nc2sc3c(c2c1=O)CCN(C)C3
  -2%, nt, nt, -3%[46.1 µM], -8%, 3%, -3%, 13%[46.1 µM]

(list continues)
Below each compound: SARS PLpro yeast, Cruzain Triton, Cruzain inh noDet, MARV entry inh, RE007 growth inh, NS1 inh, StopGo reporter, LASV entry inh
- CCOC(=O)Cc1csc(NC(=O)c2cccc(Cl)c2)n1
  nt, nt, nt, ?, 15%, nt, -5%, -1%
- COc1cccc(C(=O)Nc2ccc(-c3nc4ccccc4o3)c(O)c2)c1
  -4%, -0.3%, 2%, -22%, 10%, 7%, nt, -13%
- CCCCOc1ccc(C(=O)N/N=C/c2ccc(OCCN3CCCCC3)c(OC)c2)cc1
  -7%, -8.6%, -17%, ?, -3%, 21%, -21%, ?
- CCCCNC(=O)OCCSCCS(=O)(=O)c1ccc(Cl)cc1
  1%, nt, nt, 7%, 2%, 0%, -7%, 2%
- CCOc1ccccc1CNS(=O)(=O)c1ccc2c(c1)CCCN2C(C)=O
  nt, -0.3%, -5%, nt, nt, nt, 14%, -17%[46.1 µM]
- Cc1cccc(OCCn2ccnc2)c1
  3%, nt, nt, nt, -9%, -7%, -1%, nt
- O=C1C(NS(=O)(=O)c2cccs2)=C(N2CCN(c3cccc(C(F)(F)F)c3)CC2)C(=O)c2ccccc21
  -7%, -1.8%, ?, ?, -20%, 25%, ?, ?
- CCS(=O)(=O)c1ccc2c(c1)N(S(=O)(=O)c1cccs1)CC(C(=O)O)O2 (stereo unspecified)
  2%, nt, nt, 0%[46.1 µM], 13%, 2%, -14%, 17%[46.1 µM]

Bioassay records from PubChem.
